Assay outcomes from PubChem BioAssay.
VACV E9 pol inh: vaccinia E9 polymerase processive synthesis inhibition | 46,000 tested, 0.94% active | in vitro processive DNA synthesis, absorbance read-out; active compounds read low; some inactives read as strong as hits | normalized absorbance, % (no concentration beside the values);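 active = replicate mean up to 90% and picked by the depositor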;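 also: 100% = median of the test wells of a plate; 100 nL library stock went into each well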
Numbers without * were called inactive.

SMILES	VACV E9 pol inh
CN(C)c1ccc(C=Nc2ccccc2)cc1	100.5
CCOc1ccc(C(=O)n2cnc3cc(C)c(C)cc32)cc1	99.7
Cn1cnnc1SCC(=O)N1CC2(C)CC1CC(C)(C)C2 (stereo unspecified)	102.3
N#CC(C(=O)Nc1ccccc1)=C1Nc2ccccc2N1	99.6
Cc1ccc(-c2cc(C(F)(F)F)n3nc(C(=O)N(C)Cc4ccccc4)cc3n2)cc1	104.4
CCOC(=O)c1c(NC(C)=O)sc2c1CCCNC2=O	98.4
CCc1nn(C(C)C(=O)NC)c(=O)c2cc3occc3n12 (stereo unspecified)	99.6
COc1ccc(-c2nc3ccccc3[nH]2)cc1OC	99.8
COc1ccc(C(=O)N2CCn3c2nc2ccccc23)cc1	102.7
Clc1nc(Cl)nc(Nc2ccccc2)n1	101.6
c1ccc(CNc2nc(NC3CCCCC3)nc(N3CCOCC3)n2)cc1	100.3
CN(C)c1ccc(C(C#N)=C(C#N)C#N)cc1	107.7
O=C(O)C(F)(F)C(NCc1ccccc1)c1ccccc1 (stereo unspecified)	101.4
Cc1ccc2c(Cl)cc(Cl)c(OCC(=O)N3CCc4ccccc43)c2n1	101.5
CCCCN(C)S(=O)(=O)c1cccc2cccnc12	95.5
Cc1ccc(CNC(=O)C2(O)c3ccccc3NC(=O)N2c2ccc(C)c(C)c2)cc1 (stereo unspecified)	104.2
Cc1nc(-c2cc(C#N)c(SCCC(=O)OC(C)(C)C)nc2C)cs1	94.5
COC(=O)c1cc(S(=O)(=O)NC2CCCC2)cn1C	89.0
CN(C(=O)CSc1ccccc1C(=O)O)c1ccccc1	100.4
Cc1ccc(NC(=O)C2CC(=O)N(Cc3ccccc3)C(=Nc3ccccc3)S2)c(C)c1 (stereo unspecified)	100.3
O=C(CNC(=O)c1cccs1)c1ccccc1	104.3
Cc1ccc(-n2cc(-c3ccccc3)c3c(=O)[nH]cnc32)cc1	99.8
C=C1[C@@H](C)[C@H]2[C@H](Cc3ccccc3)NC(=O)[C@]23OC(=O)/C=C/[C@H](O)CCC[C@@H](C)C/C=C/[C@H]3[C@@H]1O	101.0
CC1=C(C)N(c2ccccc2)NC(=S)S1	100.3
NNC(=O)c1cc2sccc2s1	98.2

Among those listed so far, these contain a carbonyl joined to an NH by a bond outside any ring.
SMILES	VACV E9 pol inh
N#CC(C(=O)Nc1ccccc1)=C1Nc2ccccc2N1	99.6
CCOC(=O)c1c(NC(C)=O)sc2c1CCCNC2=O	98.4
CCc1nn(C(C)C(=O)NC)c(=O)c2cc3occc3n12 (stereo unspecified)	99.6
Cc1ccc(CNC(=O)C2(O)c3ccccc3NC(=O)N2c2ccc(C)c(C)c2)cc1 (stereo unspecified)	104.2
Cc1ccc(NC(=O)C2CC(=O)N(Cc3ccccc3)C(=Nc3ccccc3)S2)c(C)c1 (stereo unspecified)	100.3
O=C(CNC(=O)c1cccs1)c1ccccc1	104.3
NNC(=O)c1cc2sccc2s1	98.2

Quoted at random: eight records from the list, in no set order.
SMILES	VACV E9 pol inh
COc1ccc(-c2nc3ccccc3[nH]2)cc1OC	99.8
Cn1cnnc1SCC(=O)N1CC2(C)CC1CC(C)(C)C2 (stereo unspecified)	102.3
Cc1ccc(NC(=O)C2CC(=O)N(Cc3ccccc3)C(=Nc3ccccc3)S2)c(C)c1 (stereo unspecified)	100.3
COc1ccc(C(=O)N2CCn3c2nc2ccccc23)cc1	102.7
Cc1ccc(CNC(=O)C2(O)c3ccccc3NC(=O)N2c2ccc(C)c(C)c2)cc1 (stereo unspecified)	104.2
CN(C)c1ccc(C(C#N)=C(C#N)C#N)cc1	107.7
Clc1nc(Cl)nc(Nc2ccccc2)n1	101.6
CCOC(=O)c1c(NC(C)=O)sc2c1CCCNC2=O	98.4

Next section:
SMILES	VACV E9 pol inh
O=C1c2ccccc2C(=O)C1c1cc(=O)[nH]c2c1ccc1ccccc12	100.5
O=c1[nH]c(-c2ccco2)nc2sc3c(c12)CCCC3	113.0
COc1ccc(C(=O)COc2ccccc2)c(OC)c1	99.2
OC(CN1CCN(c2ccccc2)CC1)C(F)(F)F (stereo unspecified)	97.5
COCC(C)NS(=O)(=O)c1c(C)cc(C)cc1C (stereo unspecified)	100.2
O=c1cc(CSc2nc3ccccc3o2)[nH]c(=S)[nH]1	100.3
FC(F)(F)c1cc(-c2ccc3ccccc3c2)no1	100.7
C=CCc1ccc(O)c(OC)c1	99.4
COCC(=O)NC(C)c1nc2ccccc2n1Cc1cc(C)ccc1C (stereo unspecified)	105.2
COc1ccccc1-c1nnc(NC(=O)c2ccc(S(=O)(=O)N3CC(C)OC(C)C3)cc2)o1 (stereo unspecified)	84.7
Cc1c(OCC(=O)OCc2ccccc2)ccc2c1oc(=O)c1ccccc12	100.2
CCOC(=O)C1=C(CSc2ccc(Cl)cc2)NC(=O)NC1c1cc(C)ccc1C (stereo unspecified)	103.4
CCOC(=O)CSc1nc2c(c(=O)n1-c1ccccc1)SCC2	100.5
CC(=O)Oc1ccc(C2OCC3C(C)C=C(C)C2C3C)cc1 (stereo unspecified)	99.5
C=C(C)Cc1c(C)nc(N2CCCC2)[nH]c1=O	93.7
Cc1nn(CC(=O)NC2CCCC2)c2ccccc12	100.3
CCCCN1C(=O)NC(C(F)(F)F)(C(F)(F)F)C2=C1CC(C)(C)CC2=O	104.0
Cc1nc2c3ccccc3nc(SCc3cccc(C(F)(F)F)c3)n2n1	99.8
Cn1cnc2c(cnn2-c2ccc(F)cc2)c1=O	98.3
Cc1nc(S(=O)(=O)N2CCC(NC(=O)c3ccccc3)CC2)cn1C	98.8
Cc1ccc(S(=O)(=O)CCC(=O)N2CCN(c3ccccc3)CC2)cc1	102.5
COC(=O)c1noc(-c2ccccc2)n1	99.6
Cc1cc(C)cc(OCc2ccc(C(=O)NN)o2)c1	100.5
CCOc1ccc2c(c1)-c1c(ssc1=Nc1ccc(NC(C)=O)cc1)C(C)(C)N2	100.2
Cc1ccc(C)c2[nH]c(=O)c(CCNC(=O)c3ccc4c(c3)OCO4)cc12	99.3
SMILES	VACV E9 pol inh
CSc1nc(-c2ccc(Cl)cc2)nn1C(=O)N(C)C	98.4
CC(=O)Oc1ccc(C(=O)N2CCc3ccccc3C2)cc1	100.7
COc1ccccc1NC(=O)Nc1ccccc1OC	94.1
CC(=O)OC1=C(C(=O)c2ccccc2)C(c2ccccc2)N(c2ccccn2)C1=O (stereo unspecified)	111.1
CCC(=O)c1c(-c2ccccc2)nc2n(CCN(CC)CC)c3ccccc3n12	103.1
Cc1ccc(O)c(-c2cc(C(F)(F)F)no2)c1	100.5
COC(=O)/C=C\C(=O)Nc1ccc(NC(C)=O)cc1	100.9
O=C1c2[nH]nc(-c3ccccc3O)c2C(c2ccccc2)N1CCc1ccccc1 (stereo unspecified)	100.3
NC(=O)CN1C(=O)CC(c2ccccc2)Sc2ccccc21 (stereo unspecified)	99.0
CC(C(O)c1ccccc1)N(C)C(=O)c1ccccc1 (stereo unspecified)	96.2
Cc1ccc(S(=O)(=O)Nc2c[nH]c(=O)[nH]c2=O)cc1	100.5
NC1=NC(c2ccncc2)n2c(nc3ccccc32)N1 (stereo unspecified)	106.4
CC(C)/C=C(/C(=O)c1ccc(Cl)cc1Cl)n1cncn1	99.6
CC1C/C(=N\O)C(C(C)C)C/C1=N/O (stereo unspecified)	107.7
CCN(CC)c1ccc2cc(C#N)c(=O)oc2c1	101.4
CCCC(C(N)=O)C1=NC2(CCCCC2)Cc2ccccc21 (stereo unspecified)	101.0
CCCSc1ncnc2c1oc1ccccc12	101.1
COc1ccc(C2(CNC(=S)Nc3ccccc3)CCOCC2)cc1	100.4
CC(=O)Oc1ccc2c(=O)c(Oc3cc(C)cc(C)c3)coc2c1	99.8
CC(=O)n1nc(C)c(CS(=O)(=O)c2ccccc2)c1C	107.6
CC(C(=O)Nc1nccs1)C1SC(=O)NC1=O (stereo unspecified)	95.0
CCn1c(C)nc2cc(NC(=O)C(F)(F)F)ccc21	90.5
O=S1(=O)CCN(CC2COc3ccccc3O2)CC1 (stereo unspecified)	103.9
CC(Oc1ccc2c(=O)c(-c3ccc(Cl)cc3)coc2c1)C(=O)O (stereo unspecified)	99.9
CCOC(=O)C=C1CCN(c2ncc(C(F)(F)F)cc2Cl)CC1	110.6
SMILES	VACV E9 pol inh
CCOC(=O)C1=C(C)NC2=C(C(=O)CC(C)(C)C2)C1c1ccc2c(c1)OCCO2 (stereo unspecified)	100.9
O=C(Nc1ccc(C(=O)c2ccccc2)cc1)c1ccccc1	97.7
Cc1cc2nc(C)n(CCCNC(=O)NC34CC5CC(CC(C5)C3)C4)c2cc1C	101.5
CN1CCC(O)(c2ccccc2)CC1	100.4
CCc1cccc2c1NC(=O)C21OCCO1	99.8
CSc1ccc(Cl)c(C(=O)OCC(=O)NCC2CCCCC2)c1	104.5
O=C1NC(=O)C(c2ccccc2)N1 (stereo unspecified)	96.7
O=C1CCC(NC(=O)OCc2ccccc2)(C(=O)OCc2ccccc2)O1 (stereo unspecified)	99.7
O=C(CSC1=NCCS1)N1CCCC1	99.3
O=C(Nc1ccc(Br)cc1)c1c[nH]c2ccccc2c1=O	91.0
O=C(CSc1ncccc1C(=O)N1CCC(Cc2ccccc2)CC1)c1ccccc1	102.5
O=c1[nH]c(SCCO)nc2sc3c(c12)CCCC3	86.6
COC(=O)C1=CCCN(C)C1	100.7
Cc1cc(C)n(-c2ccc(C(=O)Nc3ccc4c(c3)OCCO4)cc2)n1	103.7
COC(=O)c1cc2c(s1)-c1ccccc1OC2	78.0
COC(=O)c1ccc(COC(=O)c2ccc(I)cc2)cc1	107.8
CC(C)CNS(=O)(=O)c1ccc(F)cc1	100.4
C=CCNC(=O)c1sc2cc(Cl)ccc2c1Cl	110.7
CCOC(=O)c1sc(Nc2nc3ccc(OC)cc3s2)cc1C	99.1
OC(CN1CCOCC1)C(F)(F)F (stereo unspecified)	109.5
COC(=O)c1ccc(Oc2coc3cc(OC)ccc3c2=O)cc1	100.9
COc1cccc(/C=C2/C(=O)NN(c3ccccc3)C2=O)c1	100.1
COc1cc(/C=N/N(C)C(=S)Nc2cccc(Cl)c2C)cc(OC)c1OC	93.7
O=C1CC(N2c3cccc4cccc(c34)S2(=O)=O)C2COC1O2 (stereo unspecified)	99.4
N#Cc1c(F)cccc1C(C#N)c1cccs1 (stereo unspecified)	101.3
SMILES	VACV E9 pol inh
O=S(=O)(c1ccc(Cl)cc1)n1cnc2ccccc21	99.3
O=c1nc2s/c(=C\c3cccs3)c(=O)n2nc1Cc1ccccc1	99.8
O=C(O)c1ccc(C(=O)c2ccc3c(c2)C(=O)N(CC2CCCO2)C3=O)cc1 (stereo unspecified)	100.0
OCN(Cc1ccccc1)Cc1ccccc1	101.2
CCOc1ccc(N=c2ccc3ccccc3n2C)cc1	100.2
CC[N+](CC)(CC)CC(=O)Nc1c(C)cccc1C	101.0
O=C(Cc1ccccc1)NCCn1ccc2ccccc21	98.7
CN(C)C(=O)N1CCC(C(=O)c2ccc(Cl)cc2)CC1	119.6
C/C(=C/C(=O)c1c(O)c2ccccc2n(C)c1=O)Nc1ccc(N)cc1	100.2
Cn1ccnc1SCC(=O)c1ccccc1	98.3
COc1ccc(CN=C(N)N)cc1	99.9
COc1cccc(-c2nc(CS(=O)CC(=O)O)c(C)o2)c1 (stereo unspecified)	98.6
COc1ccccc1Nc1nc2c(s1)CCCC2	100.7
NC(N)=NS(=O)(=O)c1ccc(NC(=S)NC(=O)/C=C/c2ccc(F)cc2)cc1	100.1
COc1ccc(/C=C2\SC(N(C)c3ccc(Cl)cc3)=NC2=O)c(OC)c1OC	99.9
NNc1ccc2nncn2n1	88.3
N#CCN(CC#N)C(=O)C(Sc1ccccc1)c1ccccc1 (stereo unspecified)	99.3
COc1ccc(C(=O)NCC(=O)O)cc1	101.9
Cc1cc(C)nc(-n2nc(C)c(C3=CCC(C(C)(C)C)CC3)c2N)n1 (stereo unspecified)	99.6
Cc1cc(NC(=O)C2CCC2)ccc1Br	91.5
O=C(/C=C/c1ccco1)NC(c1ccccc1)c1ccccc1	102.0
CC1CCC(C(=O)NC(C(=O)Nc2ccc(F)c(Cl)c2)C(C)C)CC1 (stereo unspecified)	95.2
CN(C(=O)c1cc(-c2cccs2)nc2ccccc12)c1ccccc1	106.9
CC(C(=O)NC(C)(C)C)n1c(C(F)(F)F)nc2ccccc21 (stereo unspecified)	109.6
CC1CC(C)(C)Nc2ccc(OC(=O)c3ccccc3)cc21 (stereo unspecified)	99.1
SMILES	VACV E9 pol inh
Cc1ccc(C(=O)Nc2c(C(N)=O)oc3ccccc23)cc1C	100.8
Cc1cc(C)cc(NC(=O)CS(=O)(=O)c2cccc3nsnc23)c1	102.6
CC(=O)N1CCc2cc(Br)cc(S(=O)(=O)N(C)Cc3ccccc3)c21	83.5
CCOC(=O)CCCc1ccc(/C=C/C(=O)O)s1	99.9
Cc1ccc(Cl)cc1NC(=O)COC(=O)C1CCCC1	97.0
C=CCNc1oc(COc2ccccc2F)nc1C#N	100.0
CCN(CC)Cc1c[nH]c2c(C(=O)OC)cccc12	97.2
Cc1nn(C)c(C)c1NC(=O)c1ccc(Cl)cc1	100.2
COc1ccc(CCNC(=O)c2nnn(-c3cccc(C)c3)c2N)cc1OC	102.1
Cc1ccc2[nH]c(=O)c(CN(C)C(=O)c3cccc(Cl)c3)cc2c1	90.7
COc1ccc(S(=O)(=O)C2CS(=O)(=O)CC2O)cc1 (stereo unspecified)	100.6
COc1cccc2c1OC1(C)NC(=S)NC2C1C(=O)N(C)C (stereo unspecified)	100.9
CC(C)(C)NC(=O)CC(c1ccccc1)c1ccccc1	99.3
CCc1ccc(NC(=O)CN2C(=O)CCc3ccccc32)cc1	98.9
CSc1scc(-c2cc(Cl)cc(Cl)c2)c1C#N	102.6
O=C(CSc1nccn1-c1ccc(Cl)cc1)NC1CCCC1	100.0
CC1(C)CC(=O)N(CC(=O)N2CCN(c3cccc(C(F)(F)F)c3)CC2)c2ccccc2S1	104.3
C/C(=C/c1ccccc1)C(=O)Nc1ccc2nc3n(c(=O)c2c1)CCCCC3	88.3
COc1ccc(-c2cn[nH]c2C)cc1OC	87.3
CCOC(=O)c1cc(C)n(-c2ccc(C(=O)N3CCc4ccccc43)cc2)c1C	101.6
COC(=O)/C(C#N)=C1\C=Cc2ccccc2N1	100.7
N#CC1(C#N)C(c2ccc(F)cc2)C(C(=O)c2ccccc2)C2C=Cc3ccccc3N21 (stereo unspecified)	100.8
O=c1c2cccc3c2c(nn1CN1CCCCC1)-c1ccccc1-3	76.0*
COC(=O)CSc1nnc(-c2ccc(Cl)cc2Cl)o1	100.7

This is a subset; count on the stated rates, not on these rows.
